Arbovirus anti – arbovirus infection inhibition; AID 1251; actives 0.37% (n = 200,000); inhibition, % at 10 µM; arbovirus infection cell-based antiviral screen;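 active = inhibition from about 30%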;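 note: bluetongue infection of BSR cells; cell survival read as ATP light after 72 h; 0% = infected wells without compound and 100% = uninfected wells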
Mtb H37Rv – M. tuberculosis H37Rv growth inhibitors, H37Rv strain (AID 1626); M. tuberculosis H37Rv growth inhibition; higher % means a stronger effect; inhibition, % at 10 µM; hits with a dose series show IC50 in µM; actives 0.95% (n = 220,000);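 active = confirmed in a dose series; inconclusive = inhibition above 80% but not taken into the dose series; inactive = below 80% or under 30% at every dose of the series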;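 note: bacteria incubated seven days before Alamar blue readout; 0% = bacteria only wells and 100% = bacteria with antibiotic wells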
RecA intein inh – blocks M. tuberculosis RecA intein splicing; inhibition, %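 (about 9 µM by stock and volumes)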; cell-free RecA intein splicing, fluorescence; AID 2221; P9WHJ3; actives 0.75% (n = 290,000); in the data active = inhibition above about 30%; inconclusive = no clear call, values can overlap the other calls;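 note: 0% = vehicle wells and 100% = reference inhibitor control wells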
Target sequence (P9WHJ3 whole entry, looked up): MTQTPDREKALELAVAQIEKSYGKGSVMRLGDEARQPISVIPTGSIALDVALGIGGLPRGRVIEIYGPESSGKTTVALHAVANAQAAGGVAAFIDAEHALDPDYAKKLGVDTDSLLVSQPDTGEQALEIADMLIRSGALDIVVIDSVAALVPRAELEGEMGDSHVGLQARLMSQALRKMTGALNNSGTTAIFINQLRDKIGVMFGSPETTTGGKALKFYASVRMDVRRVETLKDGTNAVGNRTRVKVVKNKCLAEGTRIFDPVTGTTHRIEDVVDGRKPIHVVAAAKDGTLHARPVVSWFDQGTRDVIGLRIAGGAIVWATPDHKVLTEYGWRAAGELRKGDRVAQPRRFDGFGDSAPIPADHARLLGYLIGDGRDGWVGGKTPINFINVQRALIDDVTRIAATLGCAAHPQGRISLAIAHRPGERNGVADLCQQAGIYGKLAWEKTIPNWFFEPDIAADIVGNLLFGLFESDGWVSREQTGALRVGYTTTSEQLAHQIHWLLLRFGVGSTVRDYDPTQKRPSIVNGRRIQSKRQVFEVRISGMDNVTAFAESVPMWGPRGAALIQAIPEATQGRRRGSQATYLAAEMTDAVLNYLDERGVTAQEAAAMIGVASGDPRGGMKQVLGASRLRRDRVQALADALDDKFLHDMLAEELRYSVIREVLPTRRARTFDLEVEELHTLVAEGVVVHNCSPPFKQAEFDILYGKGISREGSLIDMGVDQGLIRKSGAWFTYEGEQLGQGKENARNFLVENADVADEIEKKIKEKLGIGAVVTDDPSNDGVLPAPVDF
YopH inh – inhibitors of Yersinia enterocolitica YopH tyrosine phosphatase; fluorescence Ex485/Em525; inhibition, %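 (about 10 µM by stock and volumes)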; actives 0.16% (n = 140,000);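 active = inhibition of 50% or more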;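 note: controls were vehicle for no effect and minimum signal wells for full effect; inactives centre near -20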
Mtb bLac sens – beta-lactam sensitization of Mtb H37Rv; inhibition, % at 25 µM; AID 434955; M. tuberculosis H37Rv growth with meropenem, percent inhibition; hits of this screen are not shown here; actives 0.27% (n = 330,000);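 active = about 74% or more and at least 40 points above the plate without the antibiotic, then above 30% in a dose series; inconclusive = first-round hits that could not be retested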;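 note: growth measured after seven days incubation then overnight dye step; 0% = bacteria only wells and 100% = bacteria with antibiotic; twin plates without the antibiotic show which effects depend on it; some results filed as inactive read as strong as hits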
Arbovirus anti repeat – second read-out of Arbovirus anti, no call of its own (marks repeat the call); inhibition, %; measured here: 10K subset replicate screen; many hits read low in the repeat;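 first of two repeat runs on a subset; 0% = infected and 100% = uninfected wells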
An asterisk follows results filed as active; ? = inconclusive; nt = not tested or not shown. These rows are one share of the data. The share of hits here may be higher or lower than overall.

SMILES	Arbovirus anti	Mtb H37Rv	RecA intein inh	YopH inh	Mtb bLac sens	others
COc1ccc(S(=O)(=O)N2CCn3c2nc2ccccc23)cc1	5	-2%	1.0	-77	-9
C#CCSc1nsc(SCC#C)c1C#N	2	6%	5.6	-40	-3
CCn1ncc([N+](=O)[O-])c1C(=O)Nc1cc(C)on1	5	10%	-4.9	-10	-3
CC(C)(C)NC(=O)c1cc(NC(=O)c2ccco2)cc(NC(=O)c2ccco2)c1	21	-3%	0.2	-28	7
COc1ccc(Cc2nnc(NC(=O)c3ccccc3F)s2)cc1OC	nt	nt	0.3	nt	3
CCOc1ccccc1CNCc1ccc(C(=O)O)cc1	5	-3%	-1.5	nt	-2
Cc1ccc(CNS(=O)(=O)c2c(C(=O)N3CCCCC3)c(C)n(C)c2C)o1	nt	nt	-2.5	nt	-3
O=C(CSc1nnc2ccccn12)N1CCOCC1	6	-7%	0.3	-27	-3
Cc1ccc(N(Cc2cc3ccc(C)cc3[nH]c2=O)C(=O)c2ccco2)c(C)c1	nt	1%	3.2	nt	-5
N#C/C(=C(/O)COC(=O)c1ccc2c(c1)OCCO2)c1nc2ccccc2[nH]1	-8	2%	2.0	-39	58
Fc1ccc(-n2cc(CNCCc3cccnc3)c(-c3ccccc3Cl)n2)cc1	-1	8%	1.6	nt	56
CCOC(=O)CC(NS(=O)(=O)c1ccc2[nH]cc(C(=O)O)c(=O)c2c1)c1ccc(OCC)c(OC)c1 (centres undefined)	nt	nt	-2.9	nt	4
C/C(=N\NC(=O)c1ccc(-c2ccccc2)cc1)c1ccco1	nt	nt	14	nt	82
CCCCCC(=O)Nc1nc(C)c(-c2csc(Nc3cc(Cl)ccc3C)n2)s1	-7	-9%	4.9	-27	2
NC(=O)CN1C(=O)C(=O)N(Cc2ccc(Cl)cc2)C1=O	nt	nt	-2.3	nt	-4
CCCNC(=O)N1CCC(c2ccc3c(c2)OCO3)CC1	nt	nt	2.0	nt	2
O=c1[nH][nH]c(-c2ccccc2)c1C=Nc1cccc(Cl)c1	4	-9%	9.6	-39	-4
CC(C)NC(=O)C12CC3CC(C1)CC(C(=O)NC(C)C)(C3)C2	1	-4%	0.4	nt	1
COc1cccc(C(=O)NCCN2CCN(c3ccccc3)CC2)c1	nt	nt	-2.0	nt	-1
O=C(CCn1nnc2ccccc21)OCC(=O)c1ccc(F)cc1	nt	nt	0.6	nt	-5
COc1cc(/C=C/C(=O)OCC(=O)Nc2oc(C)c3c(C)n[nH]c(=O)c23)ccc1OC(F)F	nt	nt	1.8	nt	-9
O=C(Nc1ccc(Cl)cc1)Nc1cccc(C(=O)O)c1	9	-7%	2.4	nt	0
O=C(Nc1ccon1)C1CCN(S(=O)(=O)c2cccs2)CC1	-4	-6%	0.8	8	6
Cc1oc2c(CN3CCCC3)c(O)ccc2c(=O)c1Oc1ccccc1Br	28	3%	-1.8	-42	?
Cc1ccc(-c2n[nH]c(=O)c3ccccc23)cc1S(=O)(=O)Nc1ccccc1	-5	4%	6.4	-22	3

Quoted at random: 2 compounds from above.
SMILES	Arbovirus anti	Mtb H37Rv	RecA intein inh	YopH inh	Mtb bLac sens	others
O=C(CSc1nnc2ccccn12)N1CCOCC1	6	-7%	0.3	-27	-3
CC(C)NC(=O)C12CC3CC(C1)CC(C(=O)NC(C)C)(C3)C2	1	-4%	0.4	nt	1

Next section:
SMILES	Arbovirus anti	Mtb H37Rv	RecA intein inh	YopH inh	Mtb bLac sens	others
O=C1CCCC(O)=C1C1C2=C(CCCC2=O)OC2=C1C(=O)CCC2	-2	0%	-1.9	nt	3
CCn1cc(CN2CCC(n3nccc3NC(=O)C3CCCC3)CC2)c(C)n1	nt	nt	-7.0	nt	-1
O=C(CCSc1nnc2scc(-c3ccccc3)n12)Nc1nc(-c2ccccc2)ns1	-3	1%	0.2	-37	6
Nc1c(C(=O)NCCC2=CCCCC2)sc2ccc(S(=O)(=O)N3CCCCC3)cc12	-17	13%	-1.6	-31	0
COc1ccc(-c2nc(CSCC(=O)N3CCN(C)CC3)c(C)o2)cc1OC	8	-7%	-0.4	-64	4
COc1cccc(OC)c1OCCN1CCN(C(c2ccccc2)c2ccccc2)CC1	nt	nt	6.5	nt	10
Clc1ccccc1CSc1nnc(-c2cccnc2)n1Cc1ccco1	6	-1%	1.9	-38	-12	Arbovirus anti repeat=4
O=C(NNc1ccc(Cl)nn1)c1ccc(Cl)cc1	-2	-8%	nt	-12	3
O=C(O)C1=C[C@@H](c2coc3ccccc3c2=O)C[C@@H](OCCCCO)O1	1	-1%	-4.1	nt	4
CCOC(=O)C1=C(C)NC(=O)NC1c1ccc(NC(C)=O)cc1 (centres undefined)	7	-7%	0.1	-25	3
COC(=O)c1sccc1NC(=O)c1ccc(C)o1	-1	-4%	-2.5	-54	6
CCCN1CN(Cc2ccccc2)CC2=C1CC(C)(C)CC2=O	8	-14%	1.9	-31	0
COc1ccc(OC)c(C2CC(=O)c3c([nH]c(C(=O)OCC4CCCO4)c3C)C2)c1 (centres undefined)	-12	7%	0.2	-25	-4	Arbovirus anti repeat=-14
CCC(=O)Nc1nnc(Sc2ccc(N(C)C)cc2)s1	4	nt	0.1	-23	-1
CCOc1cc(CNc2ccc3c(c2)CCC3)ccc1O	14	66%	-2.8	-9	-6
COCCCn1c(C)nnc1SCC(=O)Nc1cccc(C)c1	nt	nt	-2.9	nt	5
CC(C)C(=O)NC(C)C(c1cccs1)N1CCN(C)CC1 (centres undefined)	1	-3%	0.6	-14	6
CSCC[C@H](NC(=O)OC(C)(C)C)C(=O)N/N=C/c1cccc2nccnc12	nt	5%	-0.4	nt	-5
CC(=O)c1c(C)[nH]c(C(=O)N(CCc2ccccc2)Cc2ccccc2)c1C	-13	-13%	0.9	nt	6
Cc1ccc(C(=O)Nc2ncn[nH]2)cc1	nt	nt	-0.8	nt	3
COc1ccc(C2CC(c3ccc(Br)cc3)=NN2C(=O)CSC2=NN3CCCC(=O)N=C3S2)cc1 (centres undefined)	nt	nt	0.2	nt	11
CC(C)(CN1CCCC1)NS(=O)(=O)c1ccc(Cl)cc1	nt	nt	-2.5	nt	4
S=c1[nH]nc(CNc2cccc(Cl)c2)o1	0	0%	1.5	nt	0
CCCn1c(C)cc(-c2csc(N)n2)c1C	-15	4%	20	6	-16
O=C1CCCS(=O)(=O)c2ccccc21	-1	-2%	-0.2	nt	0
Further entries
SMILES	Arbovirus anti	Mtb H37Rv	RecA intein inh	YopH inh	Mtb bLac sens	others
CCOC(=O)C1CCCN(Cc2nc(Cc3cccc(F)c3)no2)C1 (centres undefined)	0	5%	-0.8	nt	-8
CCc1nn(C(CC)C(=O)NCc2cccs2)c(=O)c2cc3occc3n12 (centres undefined)	nt	nt	2.7	nt	-2
Cc1cc2nnn(-c3nnc(-c4ccccc4)c4ccccc34)c2cc1C	-2	1%	-1.4	-18	23
CC1=CCC(C(=O)O)(C(=O)N/N=C/c2cccnc2)C(c2ccccc2)C1 (centres undefined)	7	5%	-1.2	nt	1
COc1cccc(-c2noc(-c3ccc(Cl)nc3)n2)c1	-2	-1%	-0.4	nt	-6
CC(C)(C)C(=O)Cn1nc(Cl)nc1Cl	11	-6%	0.3	nt	0
O=C(NC1CC1)C1=C[C@H](c2csc3ccccc23)C[C@H](OCCCCO)O1	1	-1%	2.7	nt	-5
COc1ccc(-n2nc3c(c2NC(=O)C2CCCC2)CS(=O)(=O)C3)cc1	nt	nt	-5.8	nt	-3
O=C(/C=C/c1ccccc1Cl)NC(=S)Nc1ccccc1C(=O)NC1CCCCC1	-9	0%	-2.0	-23	-1
O=C(C#Cc1cccc([N+](=O)[O-])c1)c1ccccc1	-30	7%	6.3	0	2
N#CC(C(=O)C1CCCCC1)c1nc2ccccc2[nH]1 (centres undefined)	-10	57%	-0.3	4	85
O=S(=O)(c1ccccc1C(F)(F)F)N1CCC(n2cnc3ccccc32)CC1	-9	-6%	1.9	7	-1
O=C(CP(=O)(c1ccccc1)c1ccccc1)Nc1nc2ccccc2s1	nt	-2%	3.6	nt	-2
O=C(NCc1ccc(F)cc1)c1cnc2sccn2c1=O	nt	2%	2.1	nt	-5
O=C(N/N=C/c1cccnc1)c1cc(Br)ccc1O	nt	nt	-2.4	nt	2
O=S(=O)(NCCc1cccs1)c1ccc(Br)cc1	nt	nt	-2.4	nt	16
Cc1cc(C2C(=O)C(C(=O)c3ccc(Cl)cc3)C(=O)CC2(C)C)on1 (centres undefined)	-4	-5%	3.2	-23	12
O=C(Cc1ccc(-n2c(=O)c3ccccc3n(Cc3ccccc3F)c2=O)cc1)NCC1CCCO1 (centres undefined)	-6	-1%	-3.4	-34	-2
CC1CCC2C(C1)Nc1c(C(=O)O)cccc1C2(C)C (centres undefined)	11	-6%	-0.2	nt	3
Cc1nc2cc(NC(=O)COc3ccccc3C#N)ccc2n1-c1ccccc1	-9	5%	2.3	-20	61
O=C(Nc1cccc(Cl)c1)C1COc2ccccc2O1 (centres undefined)	nt	nt	-0.9	nt	3
Cc1cc(S(=O)(=O)Nc2c(C(=O)O)[nH]c3ccccc23)ccc1F	-10	-6%	-0.8	-33	-1
CC(C)CCCCCCNC(=S)Nc1ccc(S(=O)(=O)N2CCOCC2)cc1	6	-4%	1.4	2	6
CCCCCCCCCOC1OC(CO)C(O)C(O)C1NC(C)=O (centres undefined)	-13	9%	-1.2	-36	6
CCOC(=O)C1CCN(C(=O)/C(C)=C\c2ccccc2)CC1	5	0%	-4.1	nt	8
Continued.
SMILES	Arbovirus anti	Mtb H37Rv	RecA intein inh	YopH inh	Mtb bLac sens	others
COc1ccccc1C1C([N+](=O)[O-])=C(N)Oc2c1c(=O)oc1ccccc21 (centres undefined)	nt	-3%	-5.4	nt	-2
CC1(C)NC(=O)N(CCCCOc2cccc(C(F)(F)F)c2)C1=O	-3	1%	1.0	-14	3
FC(F)(F)c1ccccc1NC(=S)N1CCCC1	nt	12%	-0.6	nt	-2
COc1ccc(N2C(=O)CC(N3CCN(Cc4ccc5c(c4)OCO5)CC3)C2=O)cc1 (centres undefined)	7	-3%	0.3	nt	-2
CCn1c(SC)nnc1C1CCN(S(=O)(=O)c2ccc(OC)cc2)CC1	9	-2%	-4.8	-9	2
CCOc1ccc2nc(COC(=O)c3cccs3)c(C(C)=O)[n+]([O-])c2c1	nt	4%	nt	nt	-3
CCC(CC)c1nnc(NS(=O)(=O)Cc2ccccc2)s1	6	-9%	7.7	25	-6
COc1ccc(C)c2sc(N(CCCN(C)C)C(=O)c3ccc(S(=O)(=O)N(C)C)cc3)nc12	-1	0%	-2.8	nt	1
O=C(CNc1cc(S(=O)(=O)N2CCOCC2)ccc1NCC1CCCO1)Nc1ccc(C(F)(F)F)cc1 (centres undefined)	nt	nt	-1.3	nt	2
O=C(Nc1nnc(Cc2ccccc2)s1)c1ccco1	-36	-3%	0.5	-13	6
COc1ccccc1CN1C[C@@H]2C[C@@H](c3[nH]c4ccc(C)cc4c3C)N3CCC[C@@]23C1=O	15	3%	-0.5	nt	7
CCC(=NC1CCN(Cc2ccccc2)CC1)c1c(O)[nH]c(=O)[nH]c1=O	4	-3%	nt	-39	-9
Cc1c(Cl)cccc1NC(=S)N1CCCN(Cc2ccccc2F)C1	-3	2%	2.3	nt	-13
COc1ccc(-c2cc3cc(C(=O)O)ccn3c2C(=O)c2ccccc2)cc1	nt	-8%	-0.1	nt	-7
C/C(=N\N1C(C)CCCC1C)c1ccccc1O (centres undefined)	nt	nt	3.8	nt	4
O=C(Nc1cccc(F)c1)c1ccco1	-4	-8%	-0.2	nt	4
Cc1cc(SCC(=O)c2cccs2)n2nc(C)c(-c3ccc(Cl)cc3)c2n1	-5	-4%	0.9	-25	-5
CC1(C)OC(=O)C(=CNC(CO)C(=O)O)C(=O)O1 (centres undefined)	3	-9%	-0.6	nt	1
COc1ccc(Cc2noc(-c3ccc(C)cc3)n2)cc1	8	7%	3.2	-45	11
COC1(OC)N=C(N)C2(C#N)C(c3ccc(F)cc3)C12C#N (centres undefined)	8	7%	0.3	-37	-12
O=c1cc(CSc2ccc(S(=O)(=O)N3CCCCC3)cn2)nc2sccn12	6	-7%	nt	-32	-7
CCc1nc(SCc2ccccc2C#N)n[nH]1	nt	nt	0.3	nt	2
CCOC(=O)COc1ccc(S(=O)(=O)NCC2CCCO2)cc1 (centres undefined)	10	-7%	2.0	-16	3

Ordered by molar mass (descending): some entries from above.
SMILES	Arbovirus anti	Mtb H37Rv	RecA intein inh	YopH inh	Mtb bLac sens	others
Cc1cc(C2C(=O)C(C(=O)c3ccc(Cl)cc3)C(=O)CC2(C)C)on1 (centres undefined)	-4	-5%	3.2	-23	12
CCOC(=O)C1CCCN(Cc2nc(Cc3cccc(F)c3)no2)C1 (centres undefined)	0	5%	-0.8	nt	-8
CCOC(=O)COc1ccc(S(=O)(=O)NCC2CCCO2)cc1 (centres undefined)	10	-7%	2.0	-16	3
O=C(C#Cc1cccc([N+](=O)[O-])c1)c1ccccc1	-30	7%	6.3	0	2
